Sfp PPTase inh: Sfp phosphopantetheinyl transferase inhibition; Biochemical Sfp PPTase activity, qHTS; Potency, µM, for inactives: max response, negative = inhibition, actives largely listed as inhibitors; 3.5% of 310,000 active; active means well fitted inhibition curve with a large enough effect; inconclusive means small, poorly fitted or top-dose-only effect, or another doubt; inactive means no such curve, though single readings can be large or run the other way;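 further: the enzyme is Sfp with the accession as filed and its product quenches rhodamine fluorescence; potency means the concentration at half of the fitted maximal effect; 0% = enzyme reaction without inhibitor and -100% = no enzyme wells; top concentration of the series not given in the record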
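After 15 min at room temperature with compound, 15 nM Sfp received 5 uM rhodamine-CoA plus 12.5 uM BHQ-2-ybbR (50 mM Hepes pH 7.6, 10 mM MgCl2). Rate came from the fluorescence difference over 30 min, ex 525/em 598 nm.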
TRPV1 PAM: potentiators of human vanilloid receptor 1 (TRPV1); TRPV1-expressing cells, Fluo-8 calcium influx, capsaicin EC20 potentiation; host cell line not named in the record; control for the full effect not named in the record; potentiation, % at 8.33 µM; 0.02% of 320,000 active; AID 540277; active means potentiation above 80%; inconclusive means 30% to 80%; inactive means below 30%; further: 0% is about no effect
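Cells expressing TRPV1 were dye-loaded with Fluo-8 and read kinetically: 10 s baseline, 3 min after compound (agonist portion), then 2 min after EC20 capsaicin (allosteric enhancer portion). Calcium-bound dye fluorescence at 480/520 nm.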
gsp agonist: activates gsp, the McCune-Albright syndrome mutation; AID 624287; gsp mutant cells, cAMP HTRF, 30 min; control for the full effect not named in the record; 0.13% of 340,000 active; Potency, µM (series often up to 76.9 µM), without a hit: at the top dose activation (cAMP increase), most hits filed as activators; active = well fitted activation curve with a large enough effect; inconclusive = small, poorly fitted or top-dose-only effect, or another doubt; inactive = no such curve, though single readings can be large or run the other way; cell line not stated here;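 further: phosphodiesterase inhibitor Ro 20-1724 added with compounds to block cAMP breakdown; potency means the concentration at half of the fitted maximal effect; nearly all actives have a fitted effect of over 60% in size; about a fifth of the inactives were tested at one dose only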
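Cells in DMEM/10% FBS with G418 were pretreated with compounds in DMSO plus […] (300 uM stock) for 30 min at 37C. cAMP was measured by HTRF (cAMP-d2 plus anti-cAMP antibody-K) after 30 min at room temperature.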
gsp antag: antagonizes gsp, the McCune-Albright syndrome mutation | gsp-mutant cells, cAMP HTRF, 30 min; control for the full effect not named in the record | Potency, µM (highest dose often 76.9 µM), for inactives: top-dose activity change, negative = inhibition, hits mostly inhibitors | 0.4% of 340,000 active; active = falling curve of any shape with a large fitted effect; inconclusive = falling curve, mostly with a smaller effect; inactive = flat or rising curve; cell line not stated here;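 further: intracellular cAMP measured with PDE inhibitor Ro 20-1724 present during compound exposure; potency means the concentration at half of the fitted maximal effect; on the % scale 0 is the no-effect control and ±100 the full control effect; nearly all actives have a fitted effect of over 65% in size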
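HTRF cAMP read-out (cAMP-d2 plus anti-cAMP antibody-K in lysis buffer, 30 min RT). Before lysis, cells are exposed to compounds with […] for 30 min at 37C in DPBS containing Ca/Mg, BSA and Tween 20.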
Menin-MLL FL inh: inhibitors of human menin-MLL interaction, wild-type MLL peptide. Fluorescence polarization, fluorescein-MLL peptide displacement from menin. FP activity change, % at 61.4 µM. 290,000 tested, under 10 active. AID 1766; inconclusive = falling polarisation curve, or a change in total fluorescence; inactive = total fluorescence flat and polarisation flat or rising; no compound was filed as active; the % refers to the polarisation; negative = inhibition;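 further: % of control where 0% means no effect; inhibitors lower the polarisation; unlabelled MLL peptide was the positive control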
ClpP mod: qHTS Assay for Activators of ClpP; 1.9% of 340,000 active; Potency, µM (highest dose often 57.5 µM), inactives show top-dose activity change, negative = active; ATP-dependent Clp protease proteolytic subunit (Bacillus subtilis (strain 168)), P80244; purified B. subtilis ClpP, FRET peptide cleavage, 20 min; active = well fitted falling curve with a large enough effect; inconclusive = small, poorly fitted or top-dose-only effect; inactive = no such curve, though single readings can be large or run the other way; further: potency means the concentration at half of the fitted maximal effect; the source files actives as falling curves though it sought activators and does not explain the sign; nearly all actives have a fitted effect of over 65% in size; many hits overshoot -100%
Target sequence (P80244 whole entry, looked up): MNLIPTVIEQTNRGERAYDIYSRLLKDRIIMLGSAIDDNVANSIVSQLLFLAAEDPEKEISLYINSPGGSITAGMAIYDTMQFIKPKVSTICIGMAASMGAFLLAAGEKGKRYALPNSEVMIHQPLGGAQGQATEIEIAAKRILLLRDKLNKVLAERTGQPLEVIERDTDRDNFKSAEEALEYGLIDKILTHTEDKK
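FRET quenching reversal measured ClpP activation: 10 microg/mL B. subtilis ClpP at pH 8 with the FRET-FV decapeptide, read at 430 nm after 320 nm excitation. The 20-min minus 0-min signal was scaled between DMSO/no-enzyme wells and ADEP (5.8 microM final).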
D2 PAM: positive allosteric modulators of human D2 dopamine receptor; P14416; DiscoveRx D2 beta-arrestin cells, luminescence, 90 min; 100% = 57 uM dopamine signal; potentiation, % (no concentration beside the values); 0.23% of 360,000 active; active = potentiation of 50% or more; inconclusive = 30% to 50%; inactive = 30% or less;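 further: compound concentration not given in the record; tested on top of an EC20 dose of dopamine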
Target sequence (P14416 whole entry, looked up): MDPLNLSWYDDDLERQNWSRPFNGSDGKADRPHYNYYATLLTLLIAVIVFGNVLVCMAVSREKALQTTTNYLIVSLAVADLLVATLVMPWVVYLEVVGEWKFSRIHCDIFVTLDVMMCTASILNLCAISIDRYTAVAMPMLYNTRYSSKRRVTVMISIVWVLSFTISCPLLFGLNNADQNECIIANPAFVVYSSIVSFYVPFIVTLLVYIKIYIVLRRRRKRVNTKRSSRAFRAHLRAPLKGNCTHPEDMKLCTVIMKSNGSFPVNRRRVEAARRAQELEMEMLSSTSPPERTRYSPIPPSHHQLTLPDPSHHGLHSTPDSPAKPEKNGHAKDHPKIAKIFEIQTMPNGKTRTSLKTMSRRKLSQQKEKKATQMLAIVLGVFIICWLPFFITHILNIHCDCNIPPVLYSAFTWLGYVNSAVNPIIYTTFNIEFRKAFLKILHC
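D2 cells co-treated with compound plus 50 nM dopamine (EC20) for 90 min at 37 deg C to detect potentiation. Beta-arrestin recruitment was read as enzyme-fragment luminescence after 1 h at ambient temperature. Full response was set by 57 uM dopamine.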
* hit, by the source's call; u = inconclusive; x = no result given; [ ] = remark or other dose. Rows are unselected; 5.1% or so of the library scored in one or more.

SMILES	Sfp PPTase inh	TRPV1 PAM	gsp agonist	gsp antag	Menin-MLL FL inh	ClpP mod	D2 PAM
CC(=O)Nc1ccc(C2NC(=O)CCC2[N+](=O)[O-])cc1 (stereo not given)	0%	12	17%	5%	4.4	-0.3%	-5
O=C(Nc1cccnc1Cl)c1cccs1	5%	6	-11%	9%	-1.5	x	-2
O=c1[nH]c(C2CCN(S(=O)(=O)c3ccc4c(c3)OCCO4)CC2)nc2c1nnn2Cc1ccccc1	7%	4	-5%[15.4 µM]	-1%	9.7	-0.3%	-7
Cc1nn(-c2ccccc2)c2sc(C(=O)N(Cc3ccco3)C(C)C(=O)NC(C)(C)C)cc12 (stereo not given)	22%	-5	26%	8%	-1.5	-6.7%	-12
Cc1ccc(-c2nn(-c3ccccc3)cc2/C=C(\C#N)C(=O)NCc2ccccc2)cc1	-2%	-2	-41%[inhibitor]	9%	7.4	282%	-8
Cc1ccc(NS(=O)(=O)c2ccc(C(=O)N3CC(C)CC(C)C3)cc2)cc1 (stereo not given)	x	-21	10%[15.4 µM]	-9%	x	1.8%	-12
Cc1noc(C)c1COc1ccc(C(=O)NNC(=O)c2ccccc2)cc1	x	5	-5%	10%	x	1.3%	-4
O=C(NCCC1=CCCCC1)C1CCCN(c2nc3ccccc3o2)C1 (stereo not given)	-5%	-14	-6%	-23%	3.5	-0.4%	-3
O=S(=O)(Cc1ccccc1Cl)N1CCCCC1	-5%	-19	13%	-3%	1.3	0.8%	-11
CC(C)NC(=O)c1ccc(COc2cccc3ccccc23)o1	x	x	-23%	x	x	0.0%	-1
Cc1ccc(-c2csc(NC(=O)Cn3cnc4c3c(=O)n(C)c(=O)n4C)n2)cc1C	-20%	u	-21%	12%	8.7	-0.6%	9
Cc1nnsc1C(=O)N/N=C/c1ccc(OC(F)(F)F)cc1	7%	u	10%[15.4 µM]	-4%	-4.8	x	8
CCCP(=O)(CC(=O)N(CC)CC)c1ccccc1 (stereo not given)	12%	2	-27%	6%	1.2	-0.3%	-11
COc1ccc(C2CC(=O)C(C=NCCN3CCNCC3)=C(O)C2)cc1OC (stereo not given)	16%	-7	x	x	-1.1	x	x
COc1cccc(NC(=O)c2cc(C(=O)Nc3cccc(OC)c3)n(C)n2)c1	7%	9	u	-5%	-2.0	-0.9%	21
CC1CCCN(S(=O)(=O)c2ccc(NC(=O)CNC3CCCC3)cc2)C1 (stereo not given)	7%	-3	-11%[15.4 µM]	7%	0.0	x	-6
COCCn1c(SCc2nc3ccccc3c(=O)[nH]2)nc2ccccc2c1=O	8%	-17	34%[15.4 µM]	-2%	4.9	-2.2%	-4
Cc1ccc(S(=O)(=O)Nc2ccc(-c3cn4ccc(C)cc4n3)cc2)cc1	-1%	28	7%	-24%	4.5	u	-3
Cc1ccc(-c2c(C)sc3nc[nH]c(=O)c23)cc1C	15%	21	6%[15.4 µM]	-12%	10	-2.8%	-10
COc1ccc(-c2csc(-c3ccccc3)n2)c(OC)c1	0%	6	u	-3%	-2.0	u	-14

Single entries from the entries so far.
O=C(NCCC1=CCCCC1)C1CCCN(c2nc3ccccc3o2)C1 (stereo not given) in ClpP mod = -0.4%
Cc1noc(C)c1COc1ccc(C(=O)NNC(=O)c2ccccc2)cc1 in TRPV1 PAM = 5

The listing picks up; the four compounds before the break are reprinted first.
SMILES	Sfp PPTase inh	TRPV1 PAM	gsp agonist	gsp antag	Menin-MLL FL inh	ClpP mod	D2 PAM
COCCn1c(SCc2nc3ccccc3c(=O)[nH]2)nc2ccccc2c1=O	8%	-17	34%[15.4 µM]	-2%	4.9	-2.2%	-4
Cc1ccc(S(=O)(=O)Nc2ccc(-c3cn4ccc(C)cc4n3)cc2)cc1	-1%	28	7%	-24%	4.5	u	-3
Cc1ccc(-c2c(C)sc3nc[nH]c(=O)c23)cc1C	15%	21	6%[15.4 µM]	-12%	10	-2.8%	-10
COc1ccc(-c2csc(-c3ccccc3)n2)c(OC)c1	0%	6	u	-3%	-2.0	u	-14
O=C(CSc1nc(-c2ccccc2)c(-c2ccccc2)o1)NC1CCS(=O)(=O)C1 (stereo not given)	4%	21	-5%[15.4 µM]	-25%	-0.8	x	-8
C=CCOc1ccc(/C(O)=C2/C(=O)C(=O)N(CCCN3CCOCC3)C2c2ccccc2)cc1 (stereo not given)	x	x	u	19%	x	-2.2%	-2
OCCN(Cc1ccccc1)C(=S)Nc1ccc(Cl)cc1Cl	u	1	-5%[15.4 µM]	-25%	-1.5	1.1%	-1
COc1cccc(CNC(=O)c2ccc(C(=O)NCc3cccc(OC)c3)cc2)c1	14%	11	u	5%	x	1.9%	-1
CCCCC(=O)Nc1sc(C(=O)N(CC)CC)c(C)c1C(=O)OC	13µM*	0	u	-3%	-0.7	-2.6%	-20
CC(C)c1nc(CNC(=O)C2CCC(=O)N(CCc3cccc(F)c3)C2)cs1 (stereo not given)	17%	-6	15%[15.4 µM]	8%	x	1.7%	1
O=C(Cc1ccccc1[N+](=O)[O-])NCc1ccncc1	13%	16	-6%[15.4 µM]	15%	-0.2	x	-1
CCC(C)NC(=O)CNC(=S)N(Cc1ccccc1)Cc1cccnc1 (stereo not given)	9%	10	5%	-2%	2.0	0.6%	6
O=C(Cn1nc(C(=O)O)c2ccccc2c1=O)Nc1cccc(Br)c1	-13%	2	-17%	-3%	1.2	x	-5
COc1ccc(C2CC(c3ccccc3)=NN2C(=O)COC(=O)c2ccc(S(C)(=O)=O)cc2)cc1 (stereo not given)	x	-6	-31%[inhibitor]	6%	x	-1.1%	23
O=C(COC(=O)c1cncc(Br)c1)Nc1ccc(F)c(F)c1F	x	-18	-12%	6%	x	-0.6%	-4
COc1ccc(NC(=O)C(=O)NNC(=O)c2cccs2)c(OC)c1	13%	2	-66%[inhibitor]	-26%	0.9	1.2%	-13
COc1ccc(CC(=O)Oc2ccc(C#N)cc2)cc1	1%	-2	-24%	-11%	3.9	-1.8%	-1
Cc1c(N/N=C(\C#N)C(=O)c2ccccc2)c(=O)n(-c2ccccc2)n1C	-10%	1	-54%[inhibitor]	u	9.5	x	0
OCc1c(Cl)nc2ccccn12	10%	2	-32%	13%	-5.2	4.6%	-22
Cc1ccc(CNC(=O)CCc2nnc3ccc(N4CCC5(CC4)OCCO5)nn23)cc1	-2%	3	u	4%	-2.0	-0.3%	-3
COc1cc(OC)cc(C(=O)NNC(=O)c2cc3c(s2)CCCC3)c1	24%	5	-1%	-4%	-0.2	-9.8%	-3
CC1Cc2cc(S(=O)(=O)N3CCCCC3C)ccc2N1C(=O)C1CCC1 (stereo not given)	-1%	-13	4%	1%	-3.1	-1.1%	-11
CC(=O)c1cccc(NC(=O)CSc2nc(C3CC3)nc3ccccc23)c1	-1%	8	6%[15.4 µM]	9%	0.2	x	-2
Cn1c(C(=O)O)ccc1S(=O)(=O)N1CCCCCC1	9%	17	-2%[15.4 µM]	10%	3.2	x	-6
CCN(CC)C(=S)Sc1c(-c2ccccc2)c2cc(Cl)ccc2[nH]c1=O	16µM*	1	-16%	-3%	1.3	2.3%	-9
O=C(COC(=O)c1cccs1)Nc1nc(-c2ccccc2)cs1	13%	17	-19%[15.4 µM]	11%	2.2	32µM*	0
Cc1ccsc1C1NC(=O)c2c(sc3c2CCCC3)N1 (stereo not given)	45µM*	4	-25%	-3%	-1.3	-21%	-4
CCN(CC)CC#CC(OC)(c1ccccc1)c1ccccc1	10%	-4	16%[15.4 µM]	-25%	-1.9	-0.8%	-16
COC(=O)c1c(C)nc2ccccc2c1-c1ccccc1	11%	-12	-9%	4%	2.1	-1.9%	-3
Cc1nn(Cc2ccc([N+](=O)[O-])cc2)c(=O)n1N(C)c1ncc(C(F)(F)F)cc1Cl	-1%	-13	-28%	14%	0.6	-1.5%	-22
Cc1ccsc1/C=N/NC(=O)c1ccc(-n2cccc2)cc1	-6%	-15	13%[15.4 µM]	-4%	0.0	x	-11
COCCN(C(=O)Cc1cccs1)C(C(=O)NC1CCCC1)c1ccc(OC)c(OC)c1 (stereo not given)	7%	6	u	8%	3.2	-1.4%	-4
CCOC(=O)C(NC(C)=O)C(=O)Nc1ccc(OC)cc1 (stereo not given)	4%	4	-16%[15.4 µM]	-6%	0.1	x	2
CCOc1ccc(NS(=O)(=O)c2ccc(-c3cnc(C4CC4)o3)cc2)cc1	-3%	1	-16%	-9%	x	0.5%	-3
COc1ccc(OCCNc2cc(N3CCCCC3)ccc2[N+](=O)[O-])cc1	-6%	-24	-3%[15.4 µM]	-4%	3.4	-2.9%	-12
NNC(=O)CCn1nnc2ccccc21	-10%	-11	16%[15.4 µM]	-10%	-2.9	2.2%	-25
c1ccc(CCNCc2ccco2)nc1	x	x	3%[15.4 µM]	-3%	x	-0.8%	-21
CN(C)S(=O)(=O)c1ccc(NC(=O)COC(=O)CC2CC3CCC2C3)cc1 (stereo not given)	17%	-9	3%	-3%	-0.6	-1.0%	-8
O=C(C1CCC(Cn2c(=S)[nH]c3ccccc3c2=O)CC1)N1CCN(c2ccccn2)CC1 (stereo not given)	19%	0	-4%[15.4 µM]	u	1.6	x	-3
COc1ccc(C)cc1NC(=O)Nc1ccc2c(c1)CCC2	-12%	-20	u	-26%	x	3.6%	-23
O=C(c1ccc(C(F)(F)F)cc1)N1CCN(c2ccc(N3CCOCC3)nn2)CC1	x	-7	-29%	-1%	x	-29%	5
Cc1cc(C)c[n+](-c2[nH]c(=O)sc2/C=N/N=C(\N)[S-])c1	25µM*	-6	14%	6%	-9.2	-1.0%	-4
S=c1[nH]nc(COc2ccc(Cl)cc2)n1-c1ccc(Cl)cc1	10%	-20	4%[15.4 µM]	-16%	-8.8	4.6%	-7
